Source: PubChem BioAssay
Bead autofluor: compound fluorescence in toxin protease inhibitor counterscreen | compound autofluorescence counterscreen, microsphere flow cytometry; active compounds read high | fluorescence intensity (test concentration not listed) | 3.1% of 360,000 active | AID 624483;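 active = at least 3 SD above the mean of all compounds, about 16000 in these data; inconclusive = too few beads counted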;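 also: 100 nL of 1 mM stock went into each well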
ugtP null kill: kills S. aureus RN4220 lacking UgtP | S. aureus RN4220 ugtP deletion, OD600 growth, 16 h; some inactives read as strong as hits | growth inhibition, % (test concentration not listed) | 0.54% of 330,000 active | AID 1259309;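 active = z-score under -3 and OD600 up to 0.15 on both plates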;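 also: plate controls were untreated wells for no effect and antibiotic for full effect; wells of about 80 µL received 100 nL stock; the first replicate is given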
BJeLR lethal: BJeLR cell viability loss. BJeLR (HRASV12) viability, CellTiter-Glo ATP luminescence, 48 h; reference of the scale not given here. inhibition, % (no concentration beside the values). 0.17% of 300,000 active;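 active = replicate mean above 50%; inconclusive = above 50% but judged a plate artefact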;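 also: 50 nL library stock added to about 25 µL; numbers are from one replicate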
Sa RN4220 lethal: kills Staphylococcus aureus RN4220 | S. aureus RN4220 growth, OD600, 16 h | inhibition, % (test concentration not listed) | 0.33% of 330,000 active | AID 1259311;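 active = z-score of -3 or lower and OD600 up to 0.18 on both plates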;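 also: plate controls were untreated cells for no effect and reference antibiotic for full effect; stock transfer was 100 nL into about 80 µL; one replicate is shown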
PrP 5UTR inh: inhibition of PrP 5' UTR reporter expression; cell-based PrP 5' UTR mRNA reporter, plate reader; inhibition, % (no concentration beside the values); 0.35% of 340,000 active;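 active = every replicate at 50% or more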;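 also: 0 = median of the neutral control wells; tested in H4 reporter cells; numbers are from one replicate; inactives centre near -14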
Mtb hypoxia rep: inhibitors of hypoxia-regulated fluorescent reporter in Mycobacterium tuberculosis; 0.1% of 300,000 active; M. tuberculosis hypoxia-regulated fluorescent reporter, fluorescence; fluorescence inhibition, % (concentration not given with the values); AID 1159583;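 active = 35 to 45% if threefold the growth effect, above 45% if 1.5-fold the growth effect; inactive = the rest, general growth blockers included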;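 also: wells of about 50 µL received 100 nL stock; 0% = vehicle wells and 100% = reference inhibitor wells; whole bacteria with a GFP reporter of the hypoxia response; strong numbers were not always called active; many hits fall short of the cut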
Mtb hypoxia rep growth: second read-out of Mtb hypoxia rep, no call of its own (marks repeat the call); growth inhibition, %; measured here: M. tuberculosis growth (absorbance);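 0% = vehicle and 100% = reference antibiotic; read after six days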
* = called active by the depositor; ? = inconclusive; nt = no result given.

entry	SMILES	Bead autofluor	ugtP null kill	BJeLR lethal	Sa RN4220 lethal
1	CC(C)CCN1CCN(CCCc2ccccc2)CC1CCO (centres undefined)	4231	7	0	2.5
2	CCC(C)(C)n1nnnc1C(c1cc(OC)ccc1OC)N1CCN(Cc2ccccc2)CC1 (centres undefined)	2259	10	3	2.1
3	O=C(NCc1ccccc1Cl)C1CCCN(C(=O)Nc2ccc(F)cc2)C1 (centres undefined)	4412	2	-1	1.4
4	CCN1CCN(S(=O)(=O)c2ccc(OC)cc2)CC1	3347	4	6	2.5
5	O=C(CN1C(=O)NC2(CCCCCC2)C1=O)c1ccc2c(c1)OCCO2	4256	-2	18	0.8
6	CC1(C)C2CCC(C2)C1(C)NC(=O)C[N+](C)(C)C (centres undefined)	4568	0	-1	-0.1
7	O=C(Nc1c(F)c(F)c(F)c(F)c1F)C1CCCCC1	3120	3	12	6.5
8	Cc1ccccc1C(=O)NC(NCC1CCCO1)C(Cl)(Cl)Cl (centres undefined)	3647	2	0	4.9
9	CCn1c(SCC(=O)c2cc(OC)ccc2OC)nnc1C1CC1	2868	1	-14	1.5
10	CCCCN(C(=O)COC(=O)c1nc2nc(C)cc(C)n2n1)C1CCS(=O)(=O)C1 (centres undefined)	6372	9	nt	5.7

entry	PrP 5UTR inh	Mtb hypoxia rep	Mtb hypoxia rep growth
1	-9	-1	1
2	-30	1	1
3	-6	7	-3
4	-13	9	-2
5	-57	nt	nt
6	-3	10	3
7	-24	2	7
8	-12	8	3
9	-21	nt	nt
10	-12	5	2

More records
entry	SMILES	Bead autofluor	ugtP null kill	BJeLR lethal	Sa RN4220 lethal
11	Cc1cc(C)n(CCc2nc(-c3cc4ccccc4o3)cs2)n1	2666	3	-6	0.7
12	CN(C)S(=O)(=O)c1ccc(-c2csc(N/N=C/c3ccco3)n2)cc1	4817	nt	0	nt
13	CCOC(=O)C1CCCCN1Cc1cn(C)nc1-c1ccccc1F (centres undefined)	3555	-2	-6	7.4
14	CCCn1c(=O)c(C(=O)NCC2CCCO2)c(O)c2ccccc21 (centres undefined)	4120	nt	5	nt
15	Cc1ncc(CN2CCCC(C(=O)c3ccc(C(C)(C)C)cc3)C2)s1 (centres undefined)	2777	21	6	-2.8
16	Cc1ccc(OCc2ccc(C#N)cc2)c(C(=O)c2cc(C#N)c(=O)n(C3CC3)c2)c1	2265	1	nt	4.5
17	Cc1ccc(C(=O)Nc2c(N)nc(SCC(=O)Nc3cc(C)on3)[nH]c2=O)cc1	4703	2	5	1.7
18	COc1ccc(C2(c3ccc(O)cc3O)CC(c3ccccc3Cl)NC(=S)N2)cc1 (centres undefined)	2640	-4	-9	1.1
19	CCCc1nc2c(s1)CCc1onc(-c3ccc(Cl)cc3)c1-2	3144	12	8	-2.9
20	CCN(CC)c1ccc(NC(=O)c2ccccn2)cc1S(=O)(=O)Nc1ccccc1OC	5748	-3	nt	0.8

entry	PrP 5UTR inh	Mtb hypoxia rep	Mtb hypoxia rep growth
11	-18	nt	nt
12	-26	nt	nt
13	-11	11	8
14	-16	nt	nt
15	-22	-8	4
16	-4	9	-1
17	1	7	-6
18	-19	-4	0
19	-7	19	11
20	-33	2	4

Further structures
entry	SMILES	Bead autofluor	ugtP null kill	BJeLR lethal	Sa RN4220 lethal
21	COc1cccc(N2CCN(C3CC(=O)N(c4ccc(Cl)cc4)C3=O)CC2)c1 (centres undefined)	2896	4	-1	13
22	Cc1cc([N+](=O)[O-])nn1CC(=O)NN=Cc1ccccc1O	nt	-5	nt	2.5
23	COc1ccc(/C=C/C2=NN(C)C(=O)CC2)cc1	4524	10	14	9.0
24	CC(C)n1c(SCC(=O)NC2CC2)nnc1C1CC1	5735	2	-6	-1.0
25	CCC(C)(C)C1CCc2[nH]nc(C(=O)NCc3ccccn3)c2C1 (centres undefined)	2785	7	nt	5.0
26	COc1ccc(NC(=O)/C(C#N)=C/c2ccc(-c3ccc(Cl)c(C(=O)O)c3)o2)cc1	2918	4	4	6.8
27	COc1ccc(C)cc1C1=Nc2ccccc2C1(C)C	1983	10	-2	1.2
28	O=S(=O)(/N=C(/c1ccccc1)N1CCCCCC1)c1ccccc1	4126	nt	-2	nt
29	CCOc1ccc(NC(=O)c2ccc3c(c2)C(=O)N(Cc2ccncc2)C3=O)cc1	5555	-1	nt	-0.6
30	COc1cc(C=NNC(=O)Cn2ccc(C(F)(F)F)n2)cc(OC)c1OC	nt	6	nt	3.2

entry	PrP 5UTR inh	Mtb hypoxia rep	Mtb hypoxia rep growth
21	-1	13	9
22	nt	-5	-4
23	-41	12	-5
24	-15	9	4
25	-22	5	-5
26	-22	15	6
27	-1	0	5
28	-51	nt	nt
29	-14	2	4
30	nt	4	9

Entries of single compounds, looked up by structure:
`COc1ccc(NC(=O)/C(C#N)=C/c2ccc(-c3ccc(Cl)c(C(=O)O)c3)o2)cc1` is entered as Bead autofluor: 2918; ugtP null kill: 4; BJeLR lethal: 4; Sa RN4220 lethal: 6.8; PrP 5UTR inh: -22; Mtb hypoxia rep: 15; Mtb hypoxia rep growth: 6
`O=S(=O)(/N=C(/c1ccccc1)N1CCCCCC1)c1ccccc1` is entered as Bead autofluor: 4126; ugtP null kill: nt; BJeLR lethal: -2; Sa RN4220 lethal: nt; PrP 5UTR inh: -51; Mtb hypoxia rep: nt; Mtb hypoxia rep growth: nt

Continuation:
entry	SMILES	Bead autofluor	ugtP null kill	BJeLR lethal	Sa RN4220 lethal
31	CCOc1cc(/C=C2/C(=N)N3OC(C)=CC3=NC2=O)ccc1OC	2582	4	2	4.0
32	Cc1cccc(CS(=O)(=O)c2ncc(Cl)c(C(=O)Nc3ccc(F)cc3)n2)c1	4684	nt	21	nt
33	COc1ccc(OC)c(C2C(C(=O)c3ccc(C)o3)=C(O)C(=O)N2CCCN2CCOCC2)c1 (centres undefined)	4933	-3	nt	0.2
34	CCOC(=O)C1=C(C)NC(SCC(N)=O)=C(C#N)C1c1ccccc1 (centres undefined)	7427	2	-2	4.5
35	CCOc1cc(C=NNC(=O)c2ccc3c(c2)OCCO3)cc(Br)c1O	nt	-5	nt	7.6
36	Cc1cnc(Nc2nc3ccccc3o2)nc1C(=O)Nc1cccc(C(F)(F)F)c1	4596	-7	-18	10
37	O=C(COc1ccc(Br)cc1)NCCCNC(=O)c1cccnc1	?	2	-18	-2.5
38	O=C(COC(=O)C1CC1)NC(=O)c1ccccc1	2645	6	nt	6.4
39	O=C(CCC1CCCCC1)NCCN1C2=NC[C@H](Cc3ccccc3)N2C[C@H]1Cc1ccc(O)cc1	4301	nt	-3	nt
40	COc1ccc(C)cc1NC(=O)c1cc2c(=O)n3ccccc3nc2n1C	4474	8	nt	6.5

entry	PrP 5UTR inh	Mtb hypoxia rep	Mtb hypoxia rep growth
31	-8	5	1
32	2	nt	nt
33	-6	nt	nt
34	-5	3	-8
35	nt	6	3
36	-22	2	1
37	-3	1	-7
38	-22	8	2
39	-20	nt	nt
40	-11	9	-3

(list continues)
entry	SMILES	Bead autofluor	ugtP null kill	BJeLR lethal	Sa RN4220 lethal
41	COC(=O)CCN(C(=O)c1cccc(OC(C)=O)c1)c1ccccn1	4144	5	6	2.1
42	Cn1c(=O)[nH]c(=O)c2c1nc(N1CCCCC1)n2C/C=N/Nc1ccc(C(=O)O)cc1	5755	nt	5	nt
43	O=C(CCC(=O)Nc1ccc(F)cc1)N/N=C/c1cccc(Br)c1	4027	nt	-6	nt
44	COc1ccc(S(=O)(=O)N(C(C)=O)c2ccc3oc(=O)sc3c2)cc1	20711*	-6	-6	5.8
45	CC(C)(C)c1ccc(N2C(=N)SCC2=O)cc1	6410	-1	-7	-0.4
46	CCOC(=O)N1CCC(NC(=O)c2cc3c(=O)n(C)c4ccccc4c3n2C)CC1	6363	-3	-2	-3.3
47	COc1ccc(N2CCN(S(=O)(=O)c3ccc4c(c3)OCCO4)CC2)cc1	4066	14	-8	-0.4
48	COc1ccc2[nH]c3c(c2c1)CCN1C(=O)C(CC(=O)NC/C=C(\C)CCC=C(C)C)C[C@H](C(=O)N2CCOCC2)[C@@]31CCC1CCCC1 (some centres undefined)	2869	-6	nt	-1.4
49	C/C(=N/OC(=O)c1ccc(C)cc1)c1ccc(N2C(=O)C3CCCCC3C2=O)cc1 (centres undefined)	4122	nt	-22	nt
50	COc1ccc(-c2noc(N3CCC(C(=O)NCCCN4CC(C)CC(C)C4)CC3)n2)cc1 (centres undefined)	5929	-1	4	-4.1

entry	PrP 5UTR inh	Mtb hypoxia rep	Mtb hypoxia rep growth
41	9	nt	nt
42	-7	nt	nt
43	-21	nt	nt
44	-11	0	-2
45	-42	14	17
46	-13	nt	nt
47	0	1	8
48	8	-7	-4
49	-21	nt	nt
50	-11	-5	7

Next results
entry	SMILES	Bead autofluor	ugtP null kill	BJeLR lethal	Sa RN4220 lethal
51	CCC[N+]1(CC#CCC(c2ccccc2)c2ccccc2)CCCCC1	3618	10	1	-2.6
52	O=C1C=C(c2cc(Cl)cc(Cl)c2)CC(c2ccc3c(c2)OCO3)C1 (centres undefined)	nt	5	nt	1.4
53	CCCCNC(=O)Nc1ccon1	4287	4	-3	-0.6
54	N#Cc1ccccc1Sc1ccccc1C(=O)OCC(=O)NC1CCCCC1	2461	10	-4	5.8
55	NNc1ccc(Cl)c(C(=O)O)c1	4531	8	7	3.6
56	C=CC[C@]12CCc3sccc3C1N(c1ccc(C(=O)OCC)cc1)C2=O (some centres undefined)	3649	6	nt	1.2
57	CSC1=NCCN1C(=O)Cc1cccc2ccccc12	4523	3	-4	3.6
58	O=C(Cc1ccccc1)Nc1cccc(NC(=O)c2ccccc2)c1	3194	1	-8	-0.2
59	Cn1c(-c2ccccc2)nc2cnccc21	4904	0	-2	5.0
60	CCCN(Cc1ccccc1)C(=S)Nc1cccc(C)c1C	5130	0	0	-1.7

entry	PrP 5UTR inh	Mtb hypoxia rep	Mtb hypoxia rep growth
51	-13	-1	20
52	nt	2	0
53	-14	nt	nt
54	-11	7	-3
55	-84	7	16
56	-13	9	4
57	-12	8	-4
58	-4	10	2
59	-5	13	4
60	-32	7	3

New compounds follow:
entry	SMILES	Bead autofluor	ugtP null kill	BJeLR lethal	Sa RN4220 lethal
61	Cc1ccc(S(=O)(=O)NCC(c2cccnc2)N2CCOCC2)cc1 (centres undefined)	2584	2	-9	2.3
62	Clc1ccc(Cl)c(OCCN2CCOCC2)c1	3140	-1	3	10
63	COc1ccccc1N1CCN(C(=O)C2CCC(CNS(=O)(=O)c3ccc(NC(C)=O)cc3)CC2)CC1 (centres undefined)	3874	7	3	7.6
64	COC(=O)c1ccc(CNC(=O)COc2ccccc2Br)o1	13219	-6	1	0.9
65	CCN(CC)CCCNC(=S)N(CCCO)Cc1cc2cc3c(cc2[nH]c1=O)OCO3	3056	11	-3	2.0
66	COc1cc(C=NN2CCN(c3ccc(Cl)cc3)CC2)cc(OC)c1OC(C)=O	nt	12	nt	5.7
67	CCn1cnc2cc(NS(=O)(=O)c3ccc(C)cc3)ccc21	11911	3	-8	2.0
68	O=C(Cn1cc[n+](CC(=O)c2ccc(Cl)cc2Cl)c1)c1ccc(Cl)cc1Cl	5094	-26	14	-7.0
69	O=C(Nc1ccccc1C(=O)N1CCCC1)C1CCN(c2ncccn2)CC1	9820	-1	-9	0.8
70	COc1ccc(NC(=O)COC(=O)C2CCN(C(=O)c3ccc(Cl)cc3)CC2)c([N+](=O)[O-])c1	3481	0	nt	7.5

entry	PrP 5UTR inh	Mtb hypoxia rep	Mtb hypoxia rep growth
61	-8	8	1
62	-9	7	6
63	-35	-5	-1
64	-41	6	5
65	-21	3	0
66	nt	3	-7
67	-19	3	2
68	nt	-8	11
69	-14	5	-2
70	-27	14	10

(continued)
entry	SMILES	Bead autofluor	ugtP null kill	BJeLR lethal	Sa RN4220 lethal
71	COc1cc(C(C)=O)ccc1OCC(=O)Nc1cc(S(=O)(=O)N2CCOCC2)ccc1N1CCCC1	3887	0	nt	1.1
72	O=C(c1ccccc1)c1nn(-c2ccccc2)c2nnc(Cc3ccccc3)c(=O)n12	17139*	12	12	5.1
73	Cc1cc(C(=O)N/N=C2\CCCC(=O)C2)c(C)n1-c1ccccc1	2674	nt	1	nt
74	COC(=O)CCSC(=S)N1CCOCC1	4323	2	-10	-0.2
75	COc1ccc2occ(C(=O)c3ccc(N=C(C)N(C)C)cc3)c2c1	3353	-6	7	-15
76	CCN(CC)C(=O)c1cc(-c2ccc(Br)cc2)on1	23321*	12	4	3.4

entry	PrP 5UTR inh	Mtb hypoxia rep	Mtb hypoxia rep growth
71	4	2	33
72	-13	2	5
73	-18	nt	nt
74	-16	6	-2
75	-59	9	11
76	-72	3	9
